Source: PubChem (ICCB-Longwood Screening Facility, Harvard Medical School)
MbtI inh = blocks the Mycobacterium tuberculosis siderophore enzyme MbtI; P9WFX0; purified MbtI enzyme, fluorescence intensity read-out; inhibition, %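 (about 17 µg/mL by stock and volumes)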; hit rate 0.89% among 100,000; AID 493033;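 active = above 50% in both replicates, above 80% if mildly self-fluorescent; inactive = the rest, strongly fluorescent compounds included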;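 also: 0% = mean of negative and 100% = mean of positive controls; one replicate is shown; some compounds called inactive have numbers as strong as hits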
Mtb MenB inh = blocks the Mycobacterium tuberculosis MenB enzyme. hit rate 0.43% among 100,000. MenB enzyme assay, absorbance read-out; some hits fall short of the stated cut. inhibition, %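 (about 12 µg/mL by stock and volumes)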. AID 540299;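 active = mean of two replicates above 30%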;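 also: 0% = no compound and 100% = wells with inactive enzyme; the first replicate is given; strong numbers were not always called active; inactives centre near -10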
Target sequence (P9WNP5 whole entry, looked up): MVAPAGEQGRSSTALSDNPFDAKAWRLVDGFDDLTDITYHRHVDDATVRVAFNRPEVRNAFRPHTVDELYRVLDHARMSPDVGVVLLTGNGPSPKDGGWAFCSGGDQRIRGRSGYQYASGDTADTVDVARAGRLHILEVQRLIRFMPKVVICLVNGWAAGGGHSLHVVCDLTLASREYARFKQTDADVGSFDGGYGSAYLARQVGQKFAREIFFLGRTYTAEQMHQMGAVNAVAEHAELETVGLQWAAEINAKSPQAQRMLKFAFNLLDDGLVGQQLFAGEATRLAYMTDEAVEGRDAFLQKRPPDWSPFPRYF
PV pol inh = poliovirus RNA polymerase inhibition | poliovirus polymerase elongation, fluorescence polarization; stronger effect = lower value | % elongation, % (compound at 16.7 µg/mL) | hit rate 0.66% among 150,000; in the data active = % elongation below about 90%; also: some results filed as inactive read as strong as hits
Target sequence (P03300 1749-2209 limits assumed): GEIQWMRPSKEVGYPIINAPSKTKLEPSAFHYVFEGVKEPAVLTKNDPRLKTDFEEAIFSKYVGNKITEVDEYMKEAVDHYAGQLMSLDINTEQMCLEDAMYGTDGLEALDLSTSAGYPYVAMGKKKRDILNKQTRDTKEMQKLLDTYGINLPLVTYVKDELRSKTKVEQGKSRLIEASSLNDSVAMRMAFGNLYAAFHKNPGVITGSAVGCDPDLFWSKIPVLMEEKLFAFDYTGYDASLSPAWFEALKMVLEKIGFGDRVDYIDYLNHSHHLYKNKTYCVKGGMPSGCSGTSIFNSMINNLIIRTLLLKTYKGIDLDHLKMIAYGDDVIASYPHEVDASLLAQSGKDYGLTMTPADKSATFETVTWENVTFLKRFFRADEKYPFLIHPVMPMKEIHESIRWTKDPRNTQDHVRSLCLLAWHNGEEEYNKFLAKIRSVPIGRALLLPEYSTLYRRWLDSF
PV pol inh intensity = second read-out of PV pol inh, no call of its own (marks repeat the call); % elongation; measured here: total intensity read-out; formula for this scale not given here;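 total fluorescence in place of polarization; lower means less elongation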
Numbers without * were called inactive; i = inactive; · = no result given; & = joins results of further samples; ! = repeats disagree.

SMILES | MbtI inh | Mtb MenB inh | PV pol inh | PV pol inh intensity
C=CCn1c(SCC(=O)OC(C)(C)C)nc2scc(-c3ccco3)c2c1=O | -9 | -12 | 107 | 105
COc1cc(/C=N/S(=O)(=O)c2ccc(Br)cc2)cc(OC)c1O | -2 | -18 | 103 | 101
CCOc1ccc2nc(Cl)c(CN(Cc3ccco3)C(=O)C3CC3)cc2c1 | 17 | i | 100 | 101
Cc1cc(=O)n2nc(N(C)CC(=O)NC3CCCc4ccccc43)sc2n1 (configuration not stated) | -10 | -11 | 99 | 101
CC(=O)Nc1ccc2c(c1)nc1n2CCN(c2ccccc2)C1 | 9 | -3 | 95 | 91
Cc1cccc(Nc2cc(=O)[nH]c(=O)[nH]2)c1 | 12 | -17 | 100 | 102
COC(CN(C)c1cc(C)nc2c(-c3ccc(Cl)cc3)c(C)nn12)OC | 40 | -5 | 101 | 108
Cc1cccc(NC(=O)C2CC(=O)N(c3ccccc3)C2)n1 (configuration not stated) | · | -10 | 107 | 105
CSc1nn2c(=O)c(Cc3ccccc3)nnc2s1 | 8 | 8 | 97 | 95
O=S1(=O)CCC(Nc2ncnc3cc(-c4ccc(F)cc4)sc23)C1 (configuration not stated) | -44 | -12 | 107 | 123
CC(=O)N(C1=NCCCS1)c1ccccc1F | 5 | -10 | 102 | 104
Cc1cc(C)n(CCc2nc(-c3ccco3)cs2)n1 | 29 | · | 102 | 107
O=C(Cn1nnc2ccccc2c1=O)NC(=O)Nc1ccccc1F | -8 | -39 | 107 | 111
CCN(Cc1ccccc1)C(c1cccnc1)c1nnnn1Cc1ccccc1 (configuration not stated) | 0 | -33 | 100 | 100
CN1C(=O)/C(=C/c2ccc(-c3ccc(C(=O)O)cc3)o2)c2ccccc21 | 20 | -1 | 100 | 103
O=C1/C(=C\c2ccccn2)CN(Cc2ccccc2)C/C1=C\c1ccccn1 | 17 | -19 | 101 | 110
CCS(=O)(=O)c1ccc2oc(SCC(=O)CSc3nc4cc(S(=O)(=O)CC)ccc4o3)nc2c1 | 8 | 45* | 110 | 106
O=C(NCC12CC3CC(C1)CC(CNC(=O)N1CCCC1)(C3)C2)N1CCCC1 | -4 | -23 | 103 | 104
Cc1cc(NC(=O)CSc2nnc(-c3cccs3)n2C)no1 | 5 | -26 | 102 | 101
NC(=O)CSc1nnc(C2CC2)n1C1CC1 | -2 | -13 | 104 | 122
CS(=O)(=O)N1CCCC(C(=O)N2CCN(c3ccc(F)cc3)CC2)C1 (configuration not stated) | -33 | -11 | 102 | 104
COC(=O)C1=C(C)N(Cc2ccc(C)cc2)C(=O)/C1=C\c1ccccc1O | -4 | -53 | 102 | 96
CC(=O)N=C(NC(C)=O)c1ccc(N2CCOCC2)cc1 | · | -38 | 112 | 113
Cn1ccnc1-c1nc2ccccc2n(CC(=O)O)c1=O | -4 | -41 | 103 | 104
CCN1CCC(=NN2CCOCC2)CC1 | 8 | -1 | 94 | 103
CCOC(=O)Cc1c(C)nc(Cc2ccc(OC(C)C)cc2)[nH]c1=O | -11 | 0 | 104 | 108
CCOc1ccc(C2SCC(=O)Nc3c2c(=O)[nH]n3C2CCCC2)cc1 (configuration not stated) | -8 | -19 | 103 | 106
COc1ccc(/C=C2\CC/C(=C\c3ccc(Cl)cc3)C2=O)cc1 | -2 | -1 | 100 | 104
O=C(CN1C(=O)CSc2ncccc21)NCCc1ccccc1 | -2 | -14 | 104 | 105
CN(C)CCOC(=O)COc1ccc(Cl)cc1 | -11&-18 | 68*! | 99&100 | 101&102
COc1ccc(C2CC(c3ccccc3)=NN2C(=O)COC(=O)c2ccco2)cc1 (configuration not stated) | 6 | -16 | 108 | 110
CCc1nc2ccccc2c(C(=O)OCC(=O)N(C)Cc2ccccc2)c1C | -6 | · | 103 | 106
N#Cc1ccc(C(=O)NCC2CCCCC2)cc1 | -6 | -18 | 105 | 91
CN(C)c1ccc(C=NCCCN2CCOCC2)cc1 | 16 | 5 | 98 | 101
CN(C)CC/C=C1/c2ccccc2CSc2ccccc21 | 1 | -18 | 98 | 102
CCOc1ccc(-c2cn3c(n2)sc2cc(C(=O)N(C)Cc4ccccc4)ccc23)cc1 | 15 | -7 | 101 | 106
O=C(CSc1nnc(-c2ccccc2F)o1)Nc1ccc(S(=O)(=O)NC2=NCCCCC2)cc1 | 9 | -4 | 99 | 101
CN(Cc1ccccc1)C(=O)c1cc(=O)c2ccccc2o1 | -7 | · | 101 | 105
Cc1c(C(=O)NC2CCOc3ccccc32)oc2ccccc12 (configuration not stated) | -4 | -7 | 102 | 106
NCCC12CC3CC(CC(C3)C1)C2 | -4 | · | 104 | 107
CC1C(=O)OC2(C)CC(C)(C)NC(=S)N12 (configuration not stated) | 3 | -1 | 99 | 102
CC(=O)NCCOc1ccccc1Cl | · | -10 | 108 | 109
COc1ccc(N2CCN(Cc3nnnn3CCc3ccccc3)CC2)cc1 | -1 | -12 | 104 | 104
CCSc1nnc(-c2cccc(S(=O)(=O)N3CCOCC3)c2)n1-c1ccc(F)cc1 | 5 | -10 | 96 | 97
COC(=O)c1sccc1NC(=S)N1CCCCC1 | -10 | -29 | 99 | 104
O=S(=O)(Cc1ccc(F)cc1)c1cn(Cc2ccccc2Cl)c2ccccc12 | -15 | -16 | 101 | 104
CN(C)/C=C(\C#N)C(=O)N(C)c1ccc(F)cc1F | 10 | 7 | 104 | 96
COCCN(Cc1cc2c(C)cc(C)cc2nc1Cl)C(=O)c1ccco1 | 74 | -30 | 106 | 100
COC(=O)C(O)(c1c[nH]c2ccccc12)C(F)(F)F (configuration not stated) | -1 | 2 | 101 | 102
COc1ccc(CN=CC2=C(O)CC(C)(C)CC2=O)cc1 | -5 | -9 | 101 | 94

(further entries)
SMILES | MbtI inh | Mtb MenB inh | PV pol inh | PV pol inh intensity
CCCCNC(=S)NC1CCCC1 | -4 | 3 | 103 | 102
CCn1nnc2cc(C(=O)Nc3ccc(C(=O)OC(C)C)cc3)ccc21 | 6 | -14 | 111 | 115
CCOC(=O)c1sc(N(Cc2nc(-c3cccc(C)c3)oc2C)C(C)=O)c(C#N)c1C | 79 | -8 | 103 | 100
COC(=O)N/N=C\c1c(C)n(Cc2ccccc2)c2ccccc12 | 1 | -7 | 99 | 102
O=C(Nc1ccccc1F)c1ccc2snnc2c1 | -1 | -14 | 101 | 102
Cc1ccc(OCC(O)Cn2c(=N)n(C)c3ccccc32)cc1 (configuration not stated) | -4 | -11 | 103 | 107
Nc1nccc(-c2nn(-c3ccc(F)cc3)ccc2=O)n1 | 21 | -29 | 101 | 102
CC1CCCCC1Nc1n[nH]c(=S)s1 (configuration not stated) | 28 | -78 | 97 | 87
NP(N)(=O)C12CC3CC(CC(C3)C1)C2 | 9 | 3 | 100 | 101
CCOc1ccc2c(c1)C1(C)CC(C)(C)N2C(=O)N1c1ccc(Cl)c(Cl)c1 (configuration not stated) | -17 | -4 | 101 | 96

7 entries drawn at random from the list so far:
SMILES | MbtI inh | Mtb MenB inh | PV pol inh | PV pol inh intensity
Nc1nccc(-c2nn(-c3ccc(F)cc3)ccc2=O)n1 | 21 | -29 | 101 | 102
Cc1ccc(OCC(O)Cn2c(=N)n(C)c3ccccc32)cc1 (configuration not stated) | -4 | -11 | 103 | 107
O=C(Nc1ccccc1F)c1ccc2snnc2c1 | -1 | -14 | 101 | 102
COC(=O)N/N=C\c1c(C)n(Cc2ccccc2)c2ccccc12 | 1 | -7 | 99 | 102
CCOc1ccc2c(c1)C1(C)CC(C)(C)N2C(=O)N1c1ccc(Cl)c(Cl)c1 (configuration not stated) | -17 | -4 | 101 | 96
CCCCNC(=S)NC1CCCC1 | -4 | 3 | 103 | 102
NP(N)(=O)C12CC3CC(CC(C3)C1)C2 | 9 | 3 | 100 | 101

(continued)
SMILES | MbtI inh | Mtb MenB inh | PV pol inh | PV pol inh intensity
CCN(CC)CCCn1c(N)c(-c2nc3ccccc3[nH]2)c2nc(C#N)c(C#N)nc21 | -3 | 9 | 85 | 126
O=C(O)CCS(=O)(=O)c1cccc2cccnc12 | -17 | 7 | 99 | 102
CS(=O)(=O)Nc1ccc(-c2nc3cccnc3s2)cc1 | 110 | 3 | 100 | 103
CN(C(=O)COC(=O)c1ccc2c(=O)n3c(nc2c1)CCCCC3)C1(C#N)CCCCC1 | -14 | -21 | 107 | 108
Cc1cnc(NC(=O)C2=C(O)c3ccccc3S(=O)(=O)N2C)s1 | -8 | 3 | 99 | 101
O=C(Nc1ccc(F)cc1)C1C2C3CCC(C3)C12 (configuration not stated) | · | -25 | 106 | 104
O=C(Nc1ccc(N2CCOCC2)cc1)C1CC(=O)N(Cc2ccccc2)C1 (configuration not stated) | 13 | 11 | 102 | 102
CN1C(=O)c2cccc3c(S(=O)(=O)Nc4ccc(O)c(C(=O)O)c4)ccc1c23 | -20 | -32 | 98 | 101
S=C(Nc1ccc2c(c1)OCO2)Nc1cnccn1 | 36 | 0 | 99 | 102
CC(C)c1ccc(-c2noc(COC(=O)c3ccc(S(=O)(=O)NCCC#N)cc3)n2)cc1 | -17 | -31 | 105 | 107
COc1ccc(OC)c2c(C)cc(=O)[nH]c12 | · | 2 | 104 | 97
CCS(=O)(=O)N1CCC(C(=O)O)CC1 | -11 | -18 | 100 | 101
N#CCCN(C(=S)Nc1cccc(C(F)(F)F)c1)C1CCCCC1 | -11 | -10 | 104 | 110
CC(C)(C)c1cc(C(C)(C)C)n(-c2ccc(N=Cc3ccccc3O)cc2)n1 | 0 | 11 | 103 | 118
Cc1ccc(C(=O)OCC(=O)c2ccc(S(=O)(=O)N3CCCCC3)cc2)o1 | -5 | -5 | 107 | 111
CCCCN(c1nc2ccccc2[nH]c1=O)S(=O)(=O)c1ccc(C)cc1 | -32 | 3 | 103 | 105
C=CCn1c(-c2ccccc2)n[nH]c1=S | 55&67 | -23&-52 | 101&98 | 96&99
c1ccc(C2=Nn3cc(-c4ccccc4)nc3SC2)cc1 | 10 | -9 | 95 | 105
C/C(C=NN1CCN(Cc2ccccc2)CC1)=C\c1ccccc1 | -1 | -11 | 100 | 100
CC(=O)NCCc1ccc(S(N)(=O)=O)cc1 | -3 | -4 | 100 | 99
O=c1cc(CN2CCCc3ccccc32)nc2sccn12 | 136 | 4 | 72 | 196
CCOC(=O)CSc1nc(-c2ccc(OC)cc2)cc(C(F)(F)F)n1 | -3 | 10 | 104 | 108
Clc1ncnc2sc3c(c12)CCC3 | 89* | 1 | 97 | 103
COc1ccc2nc(SCC(=O)Nc3ccc(N4CCCC4)cc3)c(C#N)cc2c1 | -4 | -8 | 103 | 101
CCC(C)NC(=O)c1ccc2c(c1)[nH]c(=O)c(=O)n2CC (configuration not stated) | 26 | 9 | 97 | 96
O=C1CCCC2=C1C(c1ccccc1)NC(=S)N2 (configuration not stated) | 16 | -22 | 103 | 102
COc1ccc(CCCc2nc3ccccc3[nH]2)cc1 | · | -1 | 101 | 103
Cc1ccc(CN(C)c2nc3ccccc3nc2NS(=O)(=O)c2ccc3c(c2)OCCO3)o1 | 104 | -11 | 109 | 118
O=c1nc2n(c3ncccc13)CCC2 | 8 | 7 | 99 | 103
O=C(c1ccc2c(=O)n(Cc3ccc4c(c3)OCO4)c(=S)[nH]c2c1)N1CCNCC1 | -1 | -7 | 103 | 106
CC(O)CCC1CCCO1 (configuration not stated) | -1 | 2 | 101 | 103
CC1(C)CC(=O)C2=C(C1)Nc1ccccc1N(C(=O)C(F)(F)F)C2c1ccc(Cl)cc1Cl (configuration not stated) | · | -27 | 102 | 106
CC(C(=O)Nc1cccc(N)c1)n1nnc2ccccc21 (configuration not stated) | -14 | -23 | 103 | 104
O=S(=O)(NCc1ccc(Cl)cc1)c1cnc[nH]1 | -51 | -15 | 102 | 95
Cc1cc(C)c(NC(=O)CN2C(=O)CCC2=O)c(C)c1 | -4 | 6 | · | ·
c1ccc(N=C(Nc2ccccc2)N2CCOCC2)cc1 | · | -16 | 103 | 102
Cc1ccc(-n2nc(C)c3c2N2COCN(C3)c3c(c(C)nn3-c3ccc(C)cc3)C2)cc1 | 0 | 0 | 95 | 95
OC(CSc1nc(-c2ccccc2)ns1)C(F)(F)F (configuration not stated) | -8 | -6 | 103 | 103
CCC(CC)c1nn2cc(-c3ccc(C)c(C)c3)nc2s1 | -3 | -5 | 101 | 103
N#CCCSc1nnc(-c2ccc(Cl)cc2)o1 | 8 | -3 | 99 | 104

Three entries from above, as labelled records:
COC(CN(C)c1cc(C)nc2c(-c3ccc(Cl)cc3)c(C)nn12)OC
  MbtI inh: 40; Mtb MenB inh: -5; PV pol inh: 101; PV pol inh intensity: 108

Cc1cccc(NC(=O)C2CC(=O)N(c3ccccc3)C2)n1 (configuration not stated)
  MbtI inh: ·; Mtb MenB inh: -10; PV pol inh: 107; PV pol inh intensity: 105

CSc1nn2c(=O)c(Cc3ccccc3)nnc2s1
  MbtI inh: 8; Mtb MenB inh: 8; PV pol inh: 97; PV pol inh intensity: 95

(list continues)
SMILES | MbtI inh | Mtb MenB inh | PV pol inh | PV pol inh intensity
NC(=S)N=Nc1c(O)[nH]c2ccccc12 | 3 | -270 | 101 | 103
COc1ccc(C)cc1-n1nnnc1SC(C)C(=O)NCc1ccco1 (configuration not stated) | 2 | 16 | 101 | 100
On1c2c(c3c4nonc4ccc31)CCCC2 | -4 | -123 | 96 | 106
CCOC(=O)c1c(C)[nH]c(C(=O)COc2ccccc2OCC)c1C | -2 | -3 | 107 | 109
COc1ccc2oc(=O)c(C(=O)OCCN3CCN(S(=O)(=O)c4ccccc4)CC3)cc2c1 | 10 | 6 | 101 | 102
COc1ccc2cc3cc(C(=O)N(C)c4cccc(C(F)(F)F)c4)oc3nc2c1 | 2 | -4 | 103 | 106
CNCCNS(=O)(=O)c1ccc(N2C(=O)CC3(CCCC3)C2=O)c(Cl)c1 | -4 | -30 | 102 | 102
